# HSV replic up – enhancers of HSV replication in host cells, fold increase, host cell viability | HSV replication augmentation in cells | maximum fold increase | 220,000 tested, 0.005% active | AID 1956, 2009;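 active = peak rise of 1.5-fold or more in the series; tested in PC3 cells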;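 also: first round at 10 µM; read as green reporter fluorescence; hits show the peak of a series up to 25 µM; 1 = signal of infected wells without compound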
# PKD1 kinase inh – inhibitors of human PKD1 kinase, biochemical, fluorescence polarization; 200,000 tested, 0.056% active; inhibition, %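 (about 10 µM by stock and volumes)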; PKD1 kinase fluorescence polarization assay; AID 797, 2007; Serine/threonine-protein kinase D1 (Homo sapiens), Q15139;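 active = inhibition of 50% or more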;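 also: controls were vehicle for no effect and a reference inhibitor for full effect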
# RGS16-Gao HTS – modulators of RGS16 binding to Galphao, primary screen, biochemical, human proteins, multiplexed bead flow cytometry. 220,000 tested, 0.38% active. AID 1441, 2008. bead-based flow cytometry RGS16-Galphao binding, fluorescence; actives lie on both sides. binding response (% of control), % at 10 µM;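 active = below 25% or above 175%, edge rows of some plates excepted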;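 also: Galphao activated by GDP with aluminum fluoride before binding; 100% = wells without compound and 0% = beads without RGS; some results beyond the cut were filed as inactive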
# Target sequence (O15492 whole entry, looked up): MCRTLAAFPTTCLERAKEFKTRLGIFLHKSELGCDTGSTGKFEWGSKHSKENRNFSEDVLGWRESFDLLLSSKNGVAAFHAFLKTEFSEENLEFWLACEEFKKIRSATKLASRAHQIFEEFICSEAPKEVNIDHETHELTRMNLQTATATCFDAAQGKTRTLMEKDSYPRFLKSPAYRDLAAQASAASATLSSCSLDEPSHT
# Target sequence (P09471 whole entry, looked up): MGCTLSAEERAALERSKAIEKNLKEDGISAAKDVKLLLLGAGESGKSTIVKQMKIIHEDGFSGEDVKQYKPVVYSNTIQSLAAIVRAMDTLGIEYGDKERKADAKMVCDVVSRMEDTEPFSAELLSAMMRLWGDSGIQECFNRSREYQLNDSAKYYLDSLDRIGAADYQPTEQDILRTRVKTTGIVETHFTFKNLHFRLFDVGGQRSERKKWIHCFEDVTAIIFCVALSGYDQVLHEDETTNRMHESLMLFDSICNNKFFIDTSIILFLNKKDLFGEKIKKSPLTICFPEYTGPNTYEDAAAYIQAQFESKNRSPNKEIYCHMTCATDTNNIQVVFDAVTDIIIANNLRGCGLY
# GALR2 ag – GALR2 receptor agonists, primary screen, cell-based; Galanin receptor type 2 (Homo sapiens), O43603; GALR2-expressing cells, agonist activation read-out; activation, %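 (tested at 5 µM)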; 140,000 tested, 0.48% active; AID 803, 2007;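 active = above mean plus 3 SD of all compounds, about 5% in these data, not always enough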;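 also: 0% = vehicle buffer wells and 100% = reference agonist at full effect; tested in CHO reporter cells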
# Target sequence (O43603 whole entry, looked up): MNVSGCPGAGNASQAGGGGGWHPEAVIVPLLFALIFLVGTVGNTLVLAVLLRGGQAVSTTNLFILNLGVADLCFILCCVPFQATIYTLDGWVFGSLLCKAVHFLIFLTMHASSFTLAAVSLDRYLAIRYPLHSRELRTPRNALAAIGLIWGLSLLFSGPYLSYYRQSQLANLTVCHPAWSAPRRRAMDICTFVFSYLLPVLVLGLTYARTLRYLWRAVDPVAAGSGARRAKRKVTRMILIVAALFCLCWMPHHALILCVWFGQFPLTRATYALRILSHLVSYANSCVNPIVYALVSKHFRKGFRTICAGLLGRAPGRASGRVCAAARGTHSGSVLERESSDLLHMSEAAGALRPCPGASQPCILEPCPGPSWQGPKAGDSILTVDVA
# Insulin prom inh – inhibitors of insulin promoter-driven GFP, primary screen, imaging, TRM-6 cells (human fetal islet line), eGFP reporter, cell count. inhibition, % at 2 µM. reporter expression induced with tamoxifen. AID 1273, 2008. 130,000 tested, 0.9% active;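 active = inhibition above the mean plus 3 SD, with well images judged a real hit on visual review, cut at about 60% in these data, passing the limit was not always enough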
# Insulin prom inh cell count – second read-out of Insulin prom inh, no call of its own (marks repeat the call); normalized cell count, %; measured here: cell count, toxicity; reference of the scale not given here;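 cells exposed to compound for 48 h; stained nuclei by imaging scaled within each plate; lower means fewer cells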
# HSV replic up primary fold – recorded beside HSV replic up, whose call it bears; fold increase; compound at 10 µM; measured here: primary screen fold increase 10 uM; tested in PC3 cells;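 GFP signal in the first replicate; 1 = infected wells without compound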
# Active calls of the source: *; i = inactive; / = not tested or not shown; & = joins results of further samples.
SMILES,HSV replic up,HSV replic up primary fold,PKD1 kinase inh,RGS16-Gao HTS,GALR2 ag,Insulin prom inh,Insulin prom inh cell count
O=C(NCc1ccc(Cl)cc1)C(=O)NCC1OCCN1S(=O)(=O)c1ccc2c(c1)OCCO2 (centres undefined),i,0.81,5,/,-1.7,24,109
CC(C)C[C@@H]1NC(=O)[C@H](C(C)C)NC(=O)c2cc([N+](=O)[O-])cc(I)c2NCC[C@@H](C(N)=O)NC1=O,i,0.63,-8,127,-1.7,0,63
O=S(=O)(c1ccc(N2CCN(S(=O)(=O)c3ccc4c(c3)OCCO4)CC2)nc1)N1CCCC1,i,1.1,6,96&117,-0.6,0,84
CCCCC[C@H](O)/C=C/C1=C(CCCCCCC(=O)O)C(=O)CC1,i,0.84,4,100,-0.5,-86,106
Cc1ccc(-c2ccc(SCC(=O)N3CCN(c4ccccc4)CC3)nn2)cc1,i,1.4,1,99,-1.1,/,/
Cc1ccnc(NC(=S)NC(=O)/C=C/c2ccco2)c1,i,0.97,-7,94,-0.5,16,163
C=CCn1c(SCc2ccc(Cl)cc2)nc2c1c(=O)[nH]c(=O)n2C,i,0.86,-13,109,-0.1,/,/
Cc1nc2c(-c3ccc(F)cc3)cnn2c2c1CCC2,i,0.88,-5,106,/,56,105
COc1ccc(NC(=O)c2c(N)no[n+]2[O-])cc1,i,0.97,-2,109,/,67,35
COc1ccccc1OCCn1cc(/C=N/n2cnnc2)c2ccccc21,i,0.92,-3,104,0.3,7,115
CCOC(=O)c1nnn(-c2nonc2NC(C)=O)c1C,i,0.9,-2,105,-0.4,11,114
O=C(CSc1cccc2cccnc12)OCC(=O)c1ccc(Br)cc1,i,1,-4,36,-4.0,19,100
Cn1c(OCc2ccc3c(c2)OCO3)nc2c1c(=O)n(Cc1cccc(Cl)c1)c(=O)n2C,i,0.99,-1,/,-1.2,-300,72
CCCSC1=C(C#N)C(c2cccnc2)C(C(=O)OCC)=C(c2ccccc2)N1 (centres undefined),i,0.97,0,108,-3.1,-55,122
COC(=O)c1ccc(NC(=O)Nc2ccc(F)c(Cl)c2)cc1,i,0.97,-1,104,-1.1,-300,76
CCN1C(=O)CC(N2CCC(C(=O)N3CCOCC3)CC2)C1=O (centres undefined),i,1.1,-13,104,-2.6,-425,41
CC(C)N(Cc1nc(-c2ccc(Cl)cc2)no1)C(=O)/C=C/c1ccccc1,i,0.92,-3,110,-0.7,/,/
COc1ccc2c(c1)[nH]c1c(=O)n(CCC3=CCCCC3)cnc12,i,0.87,0,90,-1.7,31,75
Cc1ccc2cc3cc(C(=O)N(CC(=O)NC4CCCC4)c4cccc(C)c4C)sc3nc2c1,i,0.66,4,101,-1.1,-21,48
CCC(=O)Nc1cc(C(=O)O)ccc1Sc1ccc(Cl)cc1,i,0.92,-6,107,/,-75,111
CCCCN(CC)CCCNC(=O)c1csc2c1CCCCC2,i,0.98,3,100,/,-50,97
O=C(/C=C/c1ccccc1Cl)c1ccc(O)cc1,i,0.97,/,98,/,/,/
COc1cccc(C(=O)Nc2c3c(nc4c2CCC4)CCCC3)c1,i,0.9,4,97,-2.4,-38,123
COc1ccc(N2CC(C(=O)Nc3ccc(S(=O)(=O)N4CCOCC4)cc3)CC2=O)cc1 (centres undefined),i,1,-2,108,/,-56,31
CC1NC(=O)NC1CCCCC(=O)O (centres undefined),i,0.87,-9,55,-0.1,35,84
COC(=O)N/N=C(\C)c1ccccc1Br,i,0.89,-9,114,-0.3,61,111
CCOc1[nH]n(-c2ccccc2)c(=O)c1C=NCC(=O)OC,i,1,-4,102,/,/,/
O=C(CCCOc1ccc(Cl)cc1Cl)N/N=C/c1ccc(Cl)cc1,i,0.92,2,103,-1.4,/,/
O=C(c1ccc(C(F)(F)F)cc1)C1CCCN(Cc2cccn2-c2ncccn2)C1 (centres undefined),i,0.89,-1,112,/,7,109
CC1CCC(C(=O)NC(C(=O)N2CCN(c3ccccn3)CC2)C(C)C)CC1 (centres undefined),/,/,-3,99,-0.7,-14,124
O=C(COC(=O)COc1ccc2ccccc2c1)NC1CCCc2ccccc21 (centres undefined),i,0.93,1,118,0.1,-19,82
CCOc1cnc(-c2ccccc2F)o1,i,0.75,-1,95,/,/,/
O=C(COC(=O)C(Cc1ccccc1)NC(=O)c1ccco1)NC1CC1 (centres undefined),i,0.87,-5,105,-1.0,/,/
O=C(Nc1cccc(Cl)c1)Nc1ccc2c(c1)C(=O)OC2,i,0.94,-2,104,-1.8,-21,58
O=C(Cc1nn[nH]n1)NCc1ccccc1Cl,i,0.99,-2,87,-2.2,/,/
COc1ccc(C(=O)NC(CC(=O)O)c2cc([N+](=O)[O-])ccc2Cl)cc1 (centres undefined),i,0.9,-3,107,/,-45,119
COc1ccc(NC(=O)CC2C(=O)N(c3cccc(OC)c3)C(=O)N2Cc2ccco2)cc1 (centres undefined),i,0.97,-3,105,/,/,/
O=C(NCc1ccncc1)c1ccc(Cl)c(S(=O)(=O)N2CCOCC2)c1,i,0.79,4,99,-1.3,-9,80
Cc1ccc(CNC(=O)C(C(=O)NCc2ccc(C)o2)c2ncc(C(F)(F)F)cc2Cl)o1,i,1,-2,98,/,-50,45
COc1ccc2cc(C(N)=O)/c(=N/NC(=O)c3ccco3)oc2c1,i,0.92,4,108,0.5,50,112
CNC(=O)Cn1nc(-c2ccc(C)c(S(=O)(=O)N(C)C)c2)c2ccccc2c1=O,i,0.7,3,110,-2.8,6,74
O=C(COC(=O)CC(NC(=O)c1ccccc1Cl)c1ccccc1)Nc1cccc(F)c1 (centres undefined),i,1.1,7,102,-0.7,/,/
COc1cc(OC)c(/C=N/NC(=O)c2ccc([N+](=O)[O-])cc2)cc1Br,i,0.88,10,101,-4.2,-46,123
O=C(Nc1nc2ccccc2n1CCN1CCOCC1)c1cn(-c2ccccc2)nc1-c1ccccc1,/,/,-4,102,-0.2,/,/
CC(=O)c1ccc(-c2nc3ccccc3n2C)o1,i,0.87,-14,107,-0.1,4,21

# An excerpt from above, reduced to Insulin prom inh and GALR2 ag:
SMILES | Insulin prom inh | GALR2 ag
Cn1c(OCc2ccc3c(c2)OCO3)nc2c1c(=O)n(Cc1cccc(Cl)c1)c(=O)n2C | -300 | -1.2
CCCSC1=C(C#N)C(c2cccnc2)C(C(=O)OCC)=C(c2ccccc2)N1 (centres undefined) | -55 | -3.1

# Single entries from the list:
# In PKD1 kinase inh, COc1cc(OC)c(/C=N/NC(=O)c2ccc([N+](=O)[O-])cc2)cc1Br has the entry 10
# In RGS16-Gao HTS, Cc1ccnc(NC(=S)NC(=O)/C=C/c2ccco2)c1 has the entry 94

# (next part)
SMILES,HSV replic up,HSV replic up primary fold,PKD1 kinase inh,RGS16-Gao HTS,GALR2 ag,Insulin prom inh,Insulin prom inh cell count
Cc1ccc(-n2nnnc2SCC(=O)c2ccc3c(c2)NC(=O)CO3)c(C)c1,i,1.1,4,78,-1.5,4,137
Cc1ccc(S(=O)(=O)N(Cc2n[nH]c(=S)n2-c2ccccc2)c2cccc(Cl)c2)cc1,i,0.97,-1,106,/,/,/
O=C(c1ccco1)N1CCN(C(=S)NC2CC3CCC2C3)CC1 (centres undefined),i,0.95,1,102,/,/,/
O=c1c2[nH]c3ccc(Cl)cc3c2ncn1Cc1ccccn1,i,0.9,-4,107,0.3,34,113
Nc1nc(C2C(=O)CCCC2=O)cs1,i,0.98,-2,105,0.5,-49,41
COCCn1c(-c2ccccc2)nc2oc3ccccc3c(=O)c2c1=O,i,0.85,6,104,-0.4,/,/
c1ccc(-c2nn3c(-c4ccco4)nnc3s2)nc1,i,0.81,-10,99,-0.8,/,/
Clc1cccc(Cl)c1CO/N=C/c1cccs1,i,1.1,/,102,/,/,/
CC1(C)CCC(=O)N(c2ccccc2)C1=O,i,1.1,2,101,-0.4,-17,110
O=C(N/N=C/C=C/c1ccccc1)c1cccc(Br)c1,/,/,-2,100,-0.3,-43,118
COc1cc(SC)ccc1C(=O)Nc1ccccn1,i,1.2,/,103,/,/,/
Cc1ccc(S(=O)(=O)N2CCCC2C(=O)NCc2ccco2)cc1 (centres undefined),i,0.95,-5,105,-3.0,64,105
Cc1cccc(C)c1NC(=O)CN(C)CC(=O)Nc1ccccc1Oc1ccccc1,i,0.92,-4,99,/,/,/
CCN1C(=O)/C(=C\N2CCN(C)CC2)SC1=S,i,1,0,102,-0.5,-9,68
CCOc1ccccc1C(=O)Nc1cc(C(=O)NCCc2ccccc2)ccc1Cl,i,0.76,-5,95,-2.4,/,/
CCOC(=O)c1cnn(Cc2ccccc2Cl)c1N,i,0.95,6,87,-1.0,-3,89
COC(=O)CN(C(=O)CSc1nnc(-c2cccc(OC)c2)o1)c1ccc(OC)cc1,i,0.72,-1,105,-1.3,45,138
O=C(/C=C\c1ccc(-c2ccccc2)o1)c1ccccc1,i,1.1,-7,95,-1.2,/,/
COc1cc(C(C[N+](=O)[O-])c2c(C)[nH]c3ccccc23)cc(OC)c1OC (centres undefined),i,0.78,-8,109,-0.1,46,145
Cc1ccc(C(=O)Oc2ccccc2C(=O)N2CCOCC2)cc1,i,0.67,0,96,-0.9,6,113
C/C(=C1/SC(N2CCCC2)=NC1=O)c1ccc(Br)cc1,i,0.78,-8,76,-1.1,-42,75
Cc1cccc(C)c1-n1c(C)cc(/C=N/NC(=O)c2ccncc2)c1C,i,0.87,-6,106,-1.1,19,79
CC12CC3(C)CC(C)(C1)CC(C(=O)NCC(=O)O)(C2)C3,i,0.91,0,98,/,/,/
C/C(=N\NC(N)=O)c1cc(Cl)cc(Cl)c1O,i,0.9,/,109,/,/,/
COc1ccc(-c2nc(C#N)c(NCCCN(C)C)o2)cc1OC,i,0.84,-1,102,-1.1,35,82
N#CCSc1n[nH]c2nc3c(c(=O)n12)C1(CCCC1)Cc1ccccc1-3,i,1,-6,46,-0.8,53,88
O=C(c1cccs1)N1CCN(c2nnc(-c3ccccc3)c3ccccc23)CC1,i,0.75,-4,100,/,-127,93
CCOC(=O)C1=C(C)Nc2nnnn2C1c1c[nH]c2ccccc12 (centres undefined),i,0.93,-6,98,-2.5,-36,84
CCOC(=O)CC(=O)Nc1ccsc1C(N)=O,i,1.1,/,101,/,/,/
O=C1CCCc2c1nc(-c1ccc(F)cc1)n2O,i,1.4,/,104,/,/,/
O=C(c1ccccc1)N1CCN(C(=O)c2ccccc2)C1c1ccccc1,i,0.91,3,104,0.2,6,109
Cc1c(Cl)cn2c(=O)cc(CN(C)Cc3nc4ccccc4c(=O)[nH]3)nc2c1Cl,i,1,11,97,/,/,/
CCOC(=O)c1cnc2c(C(=O)OC)cccc2c1NCc1cccnc1,i,0.95,-1,100,/,-30,136
CC(=O)Nc1ccc(OCC(=O)N2CCC(Cc3ccccc3)CC2)cc1,i,1.1,-1,100,/,-43,52
CCOC(=O)C1CCN(Cc2ccc(F)cc2F)CC1,i,0.68,2,104,-1.2,-33,69
CC(=O)Nc1ccc(NC(=O)CN(C)S(=O)(=O)c2ccc3nc(C)sc3c2)cc1,i,0.95,-4,93,/,-42,212
CCN(CC)C(=O)CSc1nnc(-c2ccc(F)cc2)n1N,i,1.1,9,105,-4.1,/,/
Cc1nc2ccccc2n1/N=C/c1cccnc1,i,0.93,10,103,-0.9,31,62
CC1(c2ccco2)NC(=O)NC1=O (centres undefined),i,0.81,2,101,-2.2,0,111
COc1ccc(-c2noc(CSc3nc(-c4ccccc4)cc(=O)[nH]3)n2)cc1,i,1.1,-2,71,-3.5,-3,80
COc1ccc(N2C(=O)CN=C2Nc2cccc(C)c2C)cc1OC,i,1.1,-8,102,-0.5,/,/
Cc1c(C(=O)c2ccc(N(C)C)cc2)c2ccccn2c1CCC#N,i,1.1,1,100,/,/,/
Cc1nn(-c2ccccc2)c(N)c1C1(O)C(=O)N(C(C)C)c2ccccc21 (centres undefined),i,0.89,7,113,0.0,-38,156
O=C(Nc1ccc(Cl)c(C(F)(F)F)c1)c1ccncc1,i,0.98,1,101,/,4,99
O=S(=O)(c1ccccc1)N1CCN=C1SCc1cccc(Cl)c1,i,0.92,-5,112,-1.5,25,64

# Complete entries, looked up by structure. Order of screens: HSV replic up	HSV replic up primary fold	PKD1 kinase inh	RGS16-Gao HTS	GALR2 ag	Insulin prom inh	Insulin prom inh cell count
# Shown for CCOC(=O)C1CCN(Cc2ccc(F)cc2F)CC1 : i	0.68	2	104	-1.2	-33	69
# Shown for Cc1nn(-c2ccccc2)c(N)c1C1(O)C(=O)N(C(C)C)c2ccccc21 (centres undefined) : i	0.89	7	113	0.0	-38	156

# Bioassay records as filed in PubChem.
